# CBX7 inh – CBX7 inhibition, primary AlphaScreen; AID 1224903; AlphaScreen His6-CBX7 / biotin-H3K27me3 peptide binding; active compounds read low; normalised signal (fraction of DMSO) (concentration not given with the values); 66,000 tested, 1.1% active; in the data active means normalised signal below about 0.5;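 further: 100 nL library stock added to about 20 µL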
# Target sequence (O95931 whole entry, looked up): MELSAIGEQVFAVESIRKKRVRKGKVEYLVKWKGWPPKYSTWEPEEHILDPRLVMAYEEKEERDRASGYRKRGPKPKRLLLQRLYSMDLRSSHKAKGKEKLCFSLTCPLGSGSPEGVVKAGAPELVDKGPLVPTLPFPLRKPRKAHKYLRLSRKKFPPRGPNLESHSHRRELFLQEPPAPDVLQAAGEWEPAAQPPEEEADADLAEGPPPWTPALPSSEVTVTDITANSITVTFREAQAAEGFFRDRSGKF
# CBX7 inh z-score – second read-out of CBX7 inh, no call of its own (marks repeat the call); z-score; measured here: z-score of CBX7 signal; some inactives read as strong as hits; reference of the scale not given here;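 same signal on another scale; lower means less binding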
# Starred values were filed as active, the others as inactive. Only part of the results is shown; the hit share may differ from the screen's.
SMILES,CBX7 inh,CBX7 inh z-score
Cc1ccc(CNC(=O)CCc2c(C)nc3ncnn3c2C)cc1,1,0.66
COc1ccc2nc(C)cc(Nc3cccc(/C=C/C(=O)O)c3)c2c1,0.91,-1.1
CCN(CCNS(=O)(=O)c1ccc2c(c1)CCN2C(=O)C1CCC1)c1ccccc1,0.83,-4.7
O=c1c(S(=O)(=O)c2ccc(F)cc2)c[nH]c2ccc(F)cc12,1,1.1
COc1ccc(C2Nc3ccccc3NC3=C2C(=O)CC(c2ccc(Cl)cc2)C3)cc1 (centres undefined),0.88,-0.8
CCCC(NS(=O)(=O)c1ccc(C)cc1)C(=O)O (centres undefined),1.3,2.5
O=C(Nc1cccc(Cl)c1)C1CCN(S(=O)(=O)c2cccc3cccnc23)CC1,0.92,-1.1
Cc1ccc2nc(N3CCC(C(=O)NCc4ccc5c(c4)OCO5)CC3)sc2c1,1,0.79
COc1ccc(Nc2cc(C)nc3c(C)cc(C)cc23)c(OC)c1,0.86,-2.1
CN(C)c1ccc(NC(=O)CN2CCN(S(=O)(=O)c3ccc(F)cc3)CC2)cc1,0.71,-1.8
Cc1ccc(C)c(CN2C(=O)c3ccccc3S(=O)(=O)c3ccc(C(=O)N4CCCCC4)cc32)c1,0.98,-0.3
O=C(Nc1ccccc1C(=O)O)c1cccc(S(=O)(=O)N2CCCC2)c1,1.1,2.4
CCCN1Cc2cccc(C(=O)NCCc3cccc(C)c3)c2C1=O,0.99,-0.12
COc1ccc(OC)c(CNc2ccc3c(c2)ncn3C)c1,1,0.47
COc1ccc(Cc2noc(/C=C/c3ccc(Br)cc3)n2)cc1OC,1.3,4.5

# Rewritten bar-delimited: part of the list above.
Structure | CBX7 inh | CBX7 inh z-score
CCCN1Cc2cccc(C(=O)NCCc3cccc(C)c3)c2C1=O | 0.99 | -0.12
O=C(Nc1ccccc1C(=O)O)c1cccc(S(=O)(=O)N2CCCC2)c1 | 1.1 | 2.4
O=C(Nc1cccc(Cl)c1)C1CCN(S(=O)(=O)c2cccc3cccnc23)CC1 | 0.92 | -1.1

# Profiles, looked up by structure.
# O=C(Nc1cccc(Cl)c1)C1CCN(S(=O)(=O)c2cccc3cccnc23)CC1 is entered as CBX7 inh = 0.92; CBX7 inh z-score = -1.1
# COc1ccc(Nc2cc(C)nc3c(C)cc(C)cc23)c(OC)c1 is entered as CBX7 inh = 0.86; CBX7 inh z-score = -2.1
# Cc1ccc(CNC(=O)CCc2c(C)nc3ncnn3c2C)cc1 is entered as CBX7 inh = 1; CBX7 inh z-score = 0.66

# New compounds follow
SMILES,CBX7 inh,CBX7 inh z-score
CCC(C(=O)Nc1c(-c2cccs2)nc2ccccn12)c1ccccc1 (centres undefined),0.88,-0.96
Cc1nc(Nc2ccc(C(F)(F)F)cc2)c2c3c(sc2n1)CCC3,1,1
O=C(Nc1c(C(=O)N2CCCCC2)cnn1-c1ccccc1)c1ccccc1,1,1.5
CCc1cc(-c2n[nH]c(C)c2Oc2ccccc2)c(O)cc1OC,0.6,-6.2
COc1ccc(C(=O)Nc2cccc(C(=O)Nc3nccs3)c2)cc1,1,0.86
COc1cccc(-n2c(-c3ccc(C)cc3)cc3c2CC(C)(C)CC3=O)c1,0.35*,-6.5*
COCCCNC(=O)CSCc1nc(-c2ccc(C)cc2)oc1C,1.2,4.3
CN1c2ccccc2N(Cc2ccccc2)C(=O)C1(C)C,0.58,-1.2
CCCN(CCC)CC(O)CN(c1cccc(C)c1)S(=O)(=O)c1ccccc1 (centres undefined),1.4,0.89
Cc1ccc(C)c(-c2csc(Nc3ccc(S(N)(=O)=O)cc3)n2)c1,0.76,-0.86
COc1ccc(Cn2c(CCC(=O)Nc3ccc4c(c3)OCCO4)nc3cccnc32)cc1,0.91,-1.7
Cc1cccc(C)c1NC(=O)Cn1c(-c2cncs2)nc2ccccc21,1.1,0.17
CC1(C)CC2CC(C)(CN2CC#CCC(O)(c2ccccc2)C(C)(C)C)C1 (centres undefined),1.2,1.7
CCOc1cc2c(cc1OCC)C(c1ccc(C(C)C)cc1)NCC2 (centres undefined),1,0.24
O=C1CC(c2nc3ccccc3n2Cc2ccccc2)CN1Cc1ccccc1 (centres undefined),0.91,-0.68
O=c1c2ccccc2nc(SCc2ccc(Cl)cc2)n1Cc1ccc2c(c1)OCO2,1.3,2.5
O=C(NC1CCCCC1)c1cc(Nc2ccccc2)nc2ccccc12,0.96,-0.84
COCc1nnc(NC(=O)c2ccc(S(=O)(=O)N(C)C3CCCCC3)cc2)o1,0.16*,-1.5*
O=C(COc1ccc(-c2nnc(N3CCCCC3)c3ccccc23)cc1)N1CCCCC1,1.1,1.5
O=C(NCc1ccc2c(c1)OCO2)[C@H](Cc1ccccc1)N1Cc2ccccc2C1=O,0.44*,-1.6*
CCC(C)NC(=O)c1ccc2c(c1)NC(=O)C1CCCN21 (centres undefined),1.2,1
CCc1ccc(CNC(=O)CCc2nc(-c3ccc(OC)cc3)no2)cc1,0.82,-2.8
Cc1ccccc1Cc1c(C)nc2c(C(=O)N3CCN(Cc4ccc5c(c4)OCO5)CC3)cnn2c1C,0.84,-4.3
Cc1cc(C)c2nc(C)cc(Nc3ccc4c(c3)OCCO4)c2c1,0.91,-2.2
COc1ccc(-c2cnnn2-c2ccc(NC(=O)c3c(-c4ccccc4Cl)noc3C)cc2)cc1OC,0.8,-2.3
O=C(CN1C(=O)COc2ccc(S(=O)(=O)N3CCOCC3)cc21)NCCCN1CCCCCC1,1,0.71
CCN(C(=O)c1cn(CC(C)C)c(=O)c2cc(OC)c(OC)cc12)c1cccc(C)c1,0.99,-0.33
CCC(C)[C@@H](C(=O)NCc1cccs1)N1Cc2ccccc2C1=O (some centres undefined),1,0.094
Cc1c(C)n(CC(O)CNCCO)c2ccccc12 (centres undefined),0.92,-2.3
Cc1ccccc1-c1nc(CN2CCC(C(=O)NC3CCC(C)CC3)CC2)c(C)o1 (centres undefined),0.9,-1.5

# An excerpt of these results, bar-delimited:
compound | CBX7 inh | CBX7 inh z-score
COc1ccc(-c2cnnn2-c2ccc(NC(=O)c3c(-c4ccccc4Cl)noc3C)cc2)cc1OC | 0.8 | -2.3
O=C(CN1C(=O)COc2ccc(S(=O)(=O)N3CCOCC3)cc21)NCCCN1CCCCCC1 | 1 | 0.71

# (more compounds)
SMILES,CBX7 inh,CBX7 inh z-score
Cc1ccc2nc(NC(=O)CSc3nccn3-c3cccc(Cl)c3)sc2c1,1.2,2.8
COc1ccc(CNC(=O)c2ccc3c(c2)N(Cc2ccccc2Cl)C(=O)CS3)cc1,1,0.7
CC(C)(C)c1ccccc1OCC(=O)Nc1nc(-c2ccccc2)cs1,1.1,2.4
Cc1ccc(N(CC(=O)NC2CCCC2)S(=O)(=O)c2cccnc2)cc1,0.99,-0.15
CCc1nnc(NC(=O)COc2ccc(Cl)cc2)s1,1.1,0.058
CCc1ccccc1NC(=O)CCc1c(C)nc2cc(-c3cccc(F)c3)nn2c1C,1.1,2.7
CCN(CC)c1cc(C)c2cc(NC(=O)c3ccc(OC)cc3OC)ccc2n1,1.2,1.9
COc1ccc(CCc2nc(C)ccc2O)cc1S(=O)(=O)O,1.1,0.45
CCCCSCCCNC(=O)CSCc1nc(-c2ccc(OC)c(OC)c2)oc1C,1.2,1.9
CCOc1ccc(-c2cn(-c3ccc(C)cc3)c(SCC(=O)c3ccccc3)n2)cc1,0.86,-3.9
Cc1nc2nc(SCC(=O)NCc3c(F)cc(F)cc3F)nn2c(C)c1Cc1ccccc1,1,0.23
Cc1nn(C)c(C)c1S(=O)(=O)N(CC(=O)N1CCCCCC1)c1ccc(C(C)C)cc1,0.94,-0.8
O=C(NC1CC1)c1ccc2c(c1)N(Cc1ccccc1F)C(=O)c1ccccc1S2=O (centres undefined),0.91,-2.3
Cc1ccc(Nc2c(-c3ccccn3)nc3cc(C)ccn23)cc1,0.00096*,-22*
Cn1c2c(c3cc(Oc4ccccc4)ccc31)CCCC2=O,1.5,4.2
O=C(NCCCc1ccccc1)c1ccc2c(c1)N(Cc1ccc(F)cc1)CCS2,0.86,-3.7
CCOC(=O)c1c(-c2ccccc2)csc1NC(=O)c1ccc(F)cc1,1.1,2.5
Cc1ccc(Cn2ccc(NC(=O)c3cc(-c4ccc(Br)cc4)on3)n2)cc1,1,0.24
Cc1cc(N2CCC(C(=O)NCCC(C)C)CC2)n2nc(C)c(-c3ccc(Cl)cc3)c2n1,1.1,0.27
O=C(NCc1ccccc1)c1c(O)c2ccccc2[nH]c1=O,0.83,-2.2

# Compounds above that contain a tert-butyl group (2):
SMILES,CBX7 inh,CBX7 inh z-score
CC1(C)CC2CC(C)(CN2CC#CCC(O)(c2ccccc2)C(C)(C)C)C1 (centres undefined),1.2,1.7
CC(C)(C)c1ccccc1OCC(=O)Nc1nc(-c2ccccc2)cs1,1.1,2.4

# Bioassay records as filed in PubChem BioAssay.
